Screens deposited in PubChem by several laboratories.
RecA intein inh: blocks M. tuberculosis RecA intein splicing; AID 2221; hit rate 0.75% among 290,000; cell-free RecA intein splicing, fluorescence; inhibition, %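 (about 9 µM by stock and volumes)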; in the data active = inhibition above about 30%;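 note: 0% = vehicle wells and 100% = reference inhibitor control wells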
Target sequence (P9WHJ3 whole entry, looked up): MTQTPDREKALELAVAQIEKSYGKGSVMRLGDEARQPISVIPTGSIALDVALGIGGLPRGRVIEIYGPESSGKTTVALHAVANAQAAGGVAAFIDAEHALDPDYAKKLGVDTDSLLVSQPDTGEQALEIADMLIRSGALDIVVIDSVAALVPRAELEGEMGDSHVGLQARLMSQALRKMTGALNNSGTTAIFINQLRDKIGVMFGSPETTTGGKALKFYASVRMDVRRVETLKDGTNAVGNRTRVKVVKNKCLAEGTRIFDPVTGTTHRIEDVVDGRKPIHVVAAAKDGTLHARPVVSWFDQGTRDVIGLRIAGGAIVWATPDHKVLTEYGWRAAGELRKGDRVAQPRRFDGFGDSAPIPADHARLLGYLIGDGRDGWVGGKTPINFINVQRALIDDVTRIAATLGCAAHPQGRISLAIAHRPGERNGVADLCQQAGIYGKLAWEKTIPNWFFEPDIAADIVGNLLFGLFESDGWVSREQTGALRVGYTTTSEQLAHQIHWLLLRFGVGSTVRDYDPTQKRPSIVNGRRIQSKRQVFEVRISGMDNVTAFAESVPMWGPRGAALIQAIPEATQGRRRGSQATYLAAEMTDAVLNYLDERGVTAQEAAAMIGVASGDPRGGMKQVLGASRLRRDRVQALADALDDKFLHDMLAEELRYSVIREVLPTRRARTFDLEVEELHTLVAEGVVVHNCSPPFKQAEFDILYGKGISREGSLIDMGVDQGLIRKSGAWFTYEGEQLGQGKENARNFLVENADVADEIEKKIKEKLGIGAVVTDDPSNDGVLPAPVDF
Arbovirus anti: blocks arbovirus infection; arbovirus infection cell-based antiviral screen; inhibition, % at 10 µM; hit rate 0.37% among 200,000; AID 1251;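 active = inhibition from about 30%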;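 note: bluetongue infection of BSR cells; cell survival read as ATP light after 72 h; 0% = infected wells without compound and 100% = uninfected wells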
Mtb betalactam: beta-lactam sensitization of Mtb H37Rv | M. tuberculosis H37Rv growth with meropenem, percent inhibition; hits of this screen are not shown here | inhibition, % at 25 µM | hit rate 0.27% among 330,000 | AID 434955;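 active = about 74% or more and at least 40 points above the plate without the antibiotic, then above 30% in a dose series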;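 note: growth measured after seven days incubation then overnight dye step; 0% = bacteria only wells and 100% = bacteria with antibiotic; twin plates without the antibiotic show which effects depend on it; some results filed as inactive read as strong as hits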
YopH PTP inh: inhibitors of Yersinia enterocolitica YopH tyrosine phosphatase; fluorescence Ex485/Em525; inhibition, %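 (about 10 µM by stock and volumes)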; hit rate 0.16% among 140,000;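 active = inhibition of 50% or more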;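 note: controls were vehicle for no effect and minimum signal wells for full effect; inactives centre near -20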
Mtb growth: M. tuberculosis H37Rv growth inhibitors, H37Rv strain (AID 1626) | M. tuberculosis H37Rv growth inhibition; higher % means a stronger effect | one-dose inhibition, % at 10 µM; IC50 in µM for titrated hits | hit rate 0.95% among 220,000;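 active = confirmed in a dose series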;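 note: bacteria incubated seven days before Alamar blue readout; 0% = bacteria only wells and 100% = bacteria with antibiotic wells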
* hit, by the source's call. A portion of the library; count on the stated rates, not on these rows.

What do the screens show for `N#CC1=C(N)Oc2[nH]c(=S)[nH]c(=O)c2C12C(=O)Nc1ccccc12` (centres undefined)?
RecA intein inh: 0.1; Arbovirus anti: 1; Mtb betalactam: -1; Mtb growth: 2%

How did Cc1cc(C)c(S(=O)(=O)N2CCN(C(=O)N3CCOCC3)CC2)c(C)c1 do in these assays?
RecA intein inh: 1.3; Mtb betalactam: -4

How did Clc1cccc(-c2ccc(CNCCCN3CCOCC3)o2)c1 do in these assays?
RecA intein inh: -2.2; Arbovirus anti: -24; Mtb betalactam: -6; Mtb growth: 8%

Results for COC(=O)COc1ccc(NC(=O)C(c2ccccc2)c2ccccc2)cc1 ?
RecA intein inh: -1.3; Mtb betalactam: 4

How did C=CCCC(=O)N1CCCC(Cc2cccc(Cl)c2)(C(=O)OCC)C1 (centres undefined) do in these assays?
RecA intein inh: 3.6; Mtb betalactam: 2

What do the screens show for `COc1ccc(OCC(O)CNC(=O)c2sccc2Cl)cc1` (centres undefined)?
RecA intein inh: 2.1; Mtb betalactam: 4; Mtb growth: 7%

What do the screens show for `COc1ccc(/C=C/C(=O)OC2CCCCC2CN(C)C)cc1` (centres undefined)?
RecA intein inh: 0.2; Mtb betalactam: -4; Mtb growth: 5%

What do the screens show for `CSc1ccc(S(=O)(=O)Nc2ccc(F)cc2)cc1`?
RecA intein inh: 2.9; Arbovirus anti: 12; Mtb betalactam: -6; YopH PTP inh: -23; Mtb growth: -2%

How did Cc1nc(N)sc1N=Nc1ccc(F)cc1 do in these assays?
RecA intein inh: 3.8; Arbovirus anti: -7; Mtb betalactam: 2; YopH PTP inh: -1; Mtb growth: 26%

What do the screens show for `COc1cc(C2C(C(=O)c3cccs3)=C(O)C(=O)N2c2cc(C)on2)ccc1O` (centres undefined)?
RecA intein inh: -3.2; Arbovirus anti: 2; Mtb betalactam: 0; YopH PTP inh: -47; Mtb growth: -16%

Results for Oc1ccc(Cl)cc1N=Nc1ccccc1 ?
RecA intein inh: 0.2; Mtb betalactam: -7

What do the screens show for `Cc1ccccc1-n1c(SC(C)C(N)=O)nnc1-c1cccnc1` (centres undefined)?
RecA intein inh: -2.2; Arbovirus anti: 0; Mtb betalactam: 0; YopH PTP inh: -38; Mtb growth: 2%

Results for Cc1cccc(OCCNC(=O)c2cc(-n3cnnc3)ccc2Cl)c1 ?
RecA intein inh: 1.7; Arbovirus anti: -1; Mtb betalactam: 0; YopH PTP inh: -11; Mtb growth: 6%

What do the screens show for `CCOC(=O)C1CCCN(C(=O)CSc2nc(C)cc(C)n2)C1` (centres undefined)?
RecA intein inh: -7.0; Mtb betalactam: 4

What do the screens show for `COc1ccc(C2C=C(c3ccc(Br)cc3)Nc3nc(NS(C)(=O)=O)nn32)cc1` (centres undefined)?
RecA intein inh: inactive; Arbovirus anti: 62*; Mtb betalactam: 98; YopH PTP inh: -21

What do the screens show for `O=C(NC12CC3CC(CC(C3)C1)C2)N1CCCC(CO)C1` (centres undefined)?
RecA intein inh: 1.1; Arbovirus anti: 3; Mtb betalactam: -11; YopH PTP inh: -24; Mtb growth: -2%

What do the screens show for `COc1cc(OC)c(OC)cc1CNCCc1ccc2c(c1)OCO2`?
RecA intein inh: -1.9; Mtb betalactam: 5

What do the screens show for `O=C(Nc1ccc(Nc2ccccc2)cc1)c1ccc(Cl)c([N+](=O)[O-])c1`?
RecA intein inh: 9.9; Mtb betalactam: 8

What do the screens show for `COc1ccc(N(CC(=O)NCCSCc2ccc(C)cc2)S(=O)(=O)c2ccccc2)cc1`?
RecA intein inh: -0.1; Mtb betalactam: -6

How did CCCCNc1c([N+](=O)[O-])ncn1C do in these assays?
RecA intein inh: 1.0; Mtb betalactam: -4; Mtb growth: -13%

Brought forward from above: five entries, followed by the next part.
What do the screens show for `O=C(NC12CC3CC(CC(C3)C1)C2)N1CCCC(CO)C1` (centres undefined)?
RecA intein inh: 1.1; Arbovirus anti: 3; Mtb betalactam: -11; YopH PTP inh: -24; Mtb growth: -2%

What do the screens show for `COc1cc(OC)c(OC)cc1CNCCc1ccc2c(c1)OCO2`?
RecA intein inh: -1.9; Mtb betalactam: 5

What do the screens show for `O=C(Nc1ccc(Nc2ccccc2)cc1)c1ccc(Cl)c([N+](=O)[O-])c1`?
RecA intein inh: 9.9; Mtb betalactam: 8

What do the screens show for `COc1ccc(N(CC(=O)NCCSCc2ccc(C)cc2)S(=O)(=O)c2ccccc2)cc1`?
RecA intein inh: -0.1; Mtb betalactam: -6

How did CCCCNc1c([N+](=O)[O-])ncn1C do in these assays?
RecA intein inh: 1.0; Mtb betalactam: -4; Mtb growth: -13%

What do the screens show for `COc1ccc(Br)cc1CSC(=N)N`?
RecA intein inh: 2.3; Arbovirus anti: -5; Mtb betalactam: 1; Mtb growth: 5%

How did O=C(O)c1cccc(N/N=C/c2cc(Br)cc(Br)c2O)c1 do in these assays?
RecA intein inh: -7.3; Arbovirus anti: 1; Mtb betalactam: 6; YopH PTP inh: -42; Mtb growth: 54%

Results for CCN(CC(=O)Nc1ccc(NC(C)=O)cc1)C(=O)CCCOc1cccc(C)c1 ?
RecA intein inh: 1.1; Mtb betalactam: -1

Results for CC(C)CCC(C(=O)NC(C)c1ccccc1)C(=O)NC(C)c1ccccc1 (centres undefined) ?
RecA intein inh: -0.5; Mtb betalactam: -1

How did CS(=O)(=O)N1CCN(C(=O)c2ccc(F)cc2)CC1 do in these assays?
RecA intein inh: 0.4; Arbovirus anti: 1; Mtb betalactam: 4; YopH PTP inh: -30; Mtb growth: 10%

Results for CSc1nc2sc3c(c2c(=O)[nH]1)CCC3 ?
RecA intein inh: -1.8; Arbovirus anti: 3; Mtb betalactam: -2; YopH PTP inh: -22; Mtb growth: -2%

Results for O=[N+]([O-])c1ccc(Cl)c(S(=O)(=O)Nc2ccc(S(=O)(=O)N3CCOCC3)cc2)c1 ?
RecA intein inh: -1.1; Mtb betalactam: 2

Results for CCCCc1cc(=O)oc2cc(C)cc(OC(C)C(=O)NCc3cccnc3)c12 (centres undefined) ?
RecA intein inh: 0.0; Mtb betalactam: -4

How did N#Cc1c(-c2ccco2)cc(-c2cccnc2)nc1N do in these assays?
RecA intein inh: -8.1; Arbovirus anti: -10; Mtb betalactam: -17; YopH PTP inh: -51; Mtb growth: -4%

How did CCCCc1c(O)nc2sccn2c1=O do in these assays?
RecA intein inh: -3.9; Arbovirus anti: 1; Mtb betalactam: 7; YopH PTP inh: -24; Mtb growth: 6%

How did COCc1ccc(C(=O)N(C)CC2CCCN(CCc3ccccc3F)C2)o1 (centres undefined) do in these assays?
RecA intein inh: 1.6; Mtb betalactam: 0

What do the screens show for `N#CC1=C(N)Oc2ccc3ccc(O)cc3c2C1c1cccnc1` (centres undefined)?
RecA intein inh: 0.8; Arbovirus anti: 2; Mtb betalactam: 10; YopH PTP inh: -38; Mtb growth: -3%

Results for O=C(c1cccc([N+](=O)[O-])c1)N1CCCC(C(=O)N2CCc3ccccc3C2)C1 (centres undefined) ?
RecA intein inh: -1.4; Mtb betalactam: -8

What do the screens show for `Nc1cc(C(=O)Nc2ccc(Cl)cc2)ccc1N1CC2CC(C1)c1cccc(=O)n1C2` (centres undefined)?
RecA intein inh: -0.1; Mtb betalactam: -4

Results for Cc1ccc2oc(=S)n(C)c2c1 ?
RecA intein inh: 2.6; Arbovirus anti: 2; Mtb betalactam: 0; YopH PTP inh: -26; Mtb growth: -4%

Results for COc1cc2c(cc1NC(=O)COC(=O)C(CCSC)NC(=O)c1ccccc1Cl)oc1ccccc12 (centres undefined) ?
RecA intein inh: -3.9; Arbovirus anti: 2; Mtb betalactam: 68; YopH PTP inh: -30; Mtb growth: 2%

Results for O=C(C[n+]1cc[nH]c1)c1ccc(Cl)cc1 ?
RecA intein inh: -1.2; Mtb betalactam: -5

What do the screens show for `Nc1ccc(C(O)(C(F)(F)F)C(F)(F)F)cc1`?
RecA intein inh: 0.2; Arbovirus anti: -1; Mtb betalactam: 5; YopH PTP inh: -6; Mtb growth: 3%

How did Cc1ccc(C(=O)N2CCC(C)CC2)cc1C do in these assays?
RecA intein inh: -1.9; Arbovirus anti: -4; Mtb betalactam: 2; YopH PTP inh: -24; Mtb growth: -6%

Results for O=c1ccnc(SCc2ccccc2Cl)[nH]1 ?
Arbovirus anti: 2; Mtb betalactam: -6; YopH PTP inh: -50; Mtb growth: 3%

How did CC1(c2nnc(-c3ccc(F)cc3)o2)CC(c2ccc(F)cc2)=NO1 (centres undefined) do in these assays?
RecA intein inh: 0.4; Mtb betalactam: 2; Mtb growth: 5%

How did O=S(=O)(NCc1ccc2c(c1)OCO2)c1ccc2c(c1)oc1ccccc12 do in these assays?
RecA intein inh: 7.1; Arbovirus anti: 3; Mtb betalactam: -3; YopH PTP inh: 1; Mtb growth: -4%

What do the screens show for `CCCOc1ccc(-c2nc(C#N)c(NCC3CCCO3)o2)cc1` (centres undefined)?
Arbovirus anti: 12; Mtb betalactam: 98; YopH PTP inh: -4; Mtb growth: 4%

How did CCN1CCN(c2nc(Nc3ccccc3)nc(N)c2[N+](=O)[O-])CC1 do in these assays?
RecA intein inh: 2.5; Arbovirus anti: 1; Mtb betalactam: -4; YopH PTP inh: -32; Mtb growth: 2%

How did COc1cccc(CNC(=O)[C@@H](C)N2C(=O)N3CCc4c([nH]c5ccc(OC)cc45)C3(C)C2=O)c1 (some centres undefined) do in these assays?
RecA intein inh: -1.5; Mtb betalactam: -2

Results for COc1ccccc1-n1cnnc1SCC(=O)N1CCN(S(=O)(=O)c2ccccc2)CC1 ?
RecA intein inh: 2.1; Arbovirus anti: 7; Mtb betalactam: 4; YopH PTP inh: -43; Mtb growth: -7%

How did CCN(CC)CCN(C(=O)c1ccc2c(c1)CCCC2)c1nc2c(C)cccc2s1 do in these assays?
RecA intein inh: 12; Mtb betalactam: 2

What do the screens show for `C#CC1(O)CCC2C3CCC4=C/C(=N/OCC(=O)NCC(=O)NC(C(=O)O)C(C)C)CC[C@]4(C)C3CC[C@@]21C` (some centres undefined)?
RecA intein inh: -0.4; Mtb betalactam: -4

Results for COc1ccc(/C=C(\NC(=O)c2ccc(OC)cc2)C(=O)N2CCCCC2)cc1 ?
RecA intein inh: 1.9; Mtb betalactam: 0

Results for Cc1cc(C)cc(NC(=O)CCn2cnc3cc(C)c(C)cc32)c1 ?
RecA intein inh: -2.8; Arbovirus anti: -3; Mtb betalactam: 8; Mtb growth: -1%

Results for Cc1ccc(OCC(=O)NC(C)c2ccccc2)cc1C (centres undefined) ?
RecA intein inh: 0.6; Mtb betalactam: 0

Results for CC(c1ccccc1)n1cc(C(=O)NCC2CCCO2)nn1 (centres undefined) ?
RecA intein inh: 5.3; Arbovirus anti: -4; Mtb betalactam: -2; YopH PTP inh: 8; Mtb growth: -5%

Results for CCN(CC)C(=O)CSc1nnc([C@H](Cc2c[nH]c3ccccc23)NC(=O)OC(C)(C)C)o1 ?
RecA intein inh: -8.8; Arbovirus anti: 2; Mtb betalactam: -3; YopH PTP inh: -33; Mtb growth: -7%

What do the screens show for `Cc1cccc(OCC(=O)Nc2ccc(N3CCN(C(=O)c4ccco4)CC3)cc2)c1C`?
RecA intein inh: 6.0; Arbovirus anti: -23; Mtb betalactam: 6; Mtb growth: -1%

What do the screens show for `CCCN1C(=O)c2ccc(C(=O)NC3=NCCS3)cc2C1=O`?
RecA intein inh: 0.6; Arbovirus anti: 6; Mtb betalactam: 4; YopH PTP inh: -28; Mtb growth: 5%

What do the screens show for `O=C(c1cccc(S(=O)(=O)Nc2cccc(C(F)(F)F)c2)c1)N1CCOCC1`?
RecA intein inh: 0.7; Mtb betalactam: -2; Mtb growth: -2%

Results for O=[N+]([O-])c1ccc(Sc2ccc(F)cc2)nc1 ?
RecA intein inh: 0.3; Mtb betalactam: -3

What do the screens show for `Cc1cc(C)n(C(=O)CSc2nc3ccccc3o2)n1`?
RecA intein inh: 2.7; Arbovirus anti: 0; Mtb betalactam: 0; YopH PTP inh: -16; Mtb growth: -5%

How did O=C(c1cccn2c(=O)c3cc(Br)ccc3nc12)N1CCN(c2ccccn2)CC1 do in these assays?
Arbovirus anti: 1; Mtb betalactam: -8; YopH PTP inh: -40; Mtb growth: -4%

How did Cc1ccc(CNC(=O)CCS(=O)(=O)c2ccc(Cl)cc2)cc1 do in these assays?
RecA intein inh: -6.4; Arbovirus anti: 3; Mtb betalactam: 2; YopH PTP inh: -27; Mtb growth: -4%

What do the screens show for `COC(=O)c1[nH]c2ccc(Br)cc2c1NC(=O)C(C)N1CCN(C2CCCCC2)CC1` (centres undefined)?
RecA intein inh: 2.1; Arbovirus anti: -29; Mtb betalactam: 78; YopH PTP inh: -43; Mtb growth: -3%
